Screening results: PubChem BioAssay, Fisher Drug Discovery Resource Center
NPYLR7 agonist: mosquito NPYLR7 agonism | HEK293T NPYLR7/Galpha15, GCaMP6s calcium fluorescence | activation, % at 10 µM | 270,000 tested, 0.15% active | AID 1259423; in the data active means activation above about 40%;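 further: 0% = vehicle and 100% = reference agonist at the receptor; some compounds past the cut are filed as inactive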
NPYLR7 agonist max-min: recorded beside NPYLR7 agonist, whose call it bears; activation, %; measured here: Max-Min RFU normalised activation; some inactives read as strong as hits;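 span of the calcium signal over five minutes; 0% = vehicle and 100% = native peptide agonist; compound fluorescence can raise it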
* hit, by the source's call; & = joins results of further samples. Some of the compounds tested. The share of hits here may be higher or lower than overall.

SMILES	NPYLR7 agonist	NPYLR7 agonist max-min
O=C(CSc1nc2ccsc2c(=O)n1-c1ccccc1)N1CCCCCC1	-9.0	-10.4
COC(=O)[C@@H](NC(=O)c1ccc(S(N)(=O)=O)c(F)c1)C(C)(C)C	-11.4	-11.9
Cc1ccc(Nc2cc(N3CCOCC3)c3noc4c3c2C(=O)c2ccccc2-4)cc1	-15.6	-20.9
COc1cccc(CC(=O)N2CCOC(COc3cccc(C(F)(F)F)c3)C2)c1 (centres undefined)	7.6	4.7
CC(=Nn1c(-c2ccc(Cl)cc2)csc1=NC(C)C)c1ccc2c(c1)OCO2	5.8	4.6
CN(C)CCCN(C(=O)c1ccc2c(c1)OCCO2)c1nc2c(Cl)cccc2s1	8.2	6.2
COc1ccc(C(C)CCN)cc1 (centres undefined)	31.3	17.2
Cc1nc2c(ccc3nc(NC(=O)Cc4ccc(F)cc4)sc32)s1	2.3	0.0
Cc1ccc(OCc2coc(-c3ccccc3)n2)c2c1C(C)CC2=O (centres undefined)	1.9	0.5
O=C(CCC(=O)c1cccs1)NNC(=O)c1cccs1	-3.1	-4.4
O=C(/C=C/c1ccccc1)N(Cc1cccnc1)c1nc2cc3c(cc2s1)OCCO3	-7.0	-1.0
CN(CC(=O)Nc1ccc(Cl)cn1)CC(=O)Nc1ccccc1C(F)(F)F	0.6	-2.2
CC1(C)N=C(N)N=C(N)N1c1ccc(Br)cc1	1.3	-1.4
CC1(C(=O)NS(=O)(=O)c2ccc(C#N)cc2)CCN1C(=O)CC1CCCCC1 (centres undefined)	3.2	2.3
Cc1cc(N2CCCC(Cn3cc(Cc4ccccc4)nn3)C2)nc(N)n1 (centres undefined)	2.3	-1.4
O=[N+]([O-])c1ccc(NS(=O)(=O)Cc2ccccc2)cc1	-2.7	2.9
COC(=O)C(=O)N1CC(=O)N2CCc3ccc(Cl)cc3C2C1 (centres undefined)	11.0	16.0
Cc1cccc(Cc2nc3c(c(N4CCOCC4)n2)CN(C(=O)Nc2c(C(C)C)cccc2C(C)C)CC3)c1	-0.2	6.7
CC(Cc1cnccn1)NC(=O)c1cc(-c2ccccc2)nn1C (centres undefined)	1.3	-0.9
Cc1nc(SCC(=O)Nc2c(C)n[nH]c2C)sc1C	7.4	2.6
CCc1nc2c(OCc3ccc4c(c3)OCO4)cccn2c1N(C=O)Cc1ccc(OC)cc1	-0.4	-3.1
COC(=O)C1CCCCN1Cc1ccc2c(c1)CN(C(=O)c1ccc3[nH]ccc3c1)CCO2 (centres undefined)	12.4	3.7
Cc1ccc(S(=O)(=O)c2cn(C)c3cc(N4CCOCC4)c(F)cc3c2=O)cc1	-12.7	-15.8
COc1ccc(-c2csc(-n3[nH]c(C)c(N=Nc4cccc(Cl)c4C)c3=O)n2)cc1	2.8	0.1

Retrieved by compound from the list above:
SMILES	NPYLR7 agonist	NPYLR7 agonist max-min
Cc1cc(N2CCCC(Cn3cc(Cc4ccccc4)nn3)C2)nc(N)n1 (centres undefined)	2.3	-1.4
Cc1cccc(Cc2nc3c(c(N4CCOCC4)n2)CN(C(=O)Nc2c(C(C)C)cccc2C(C)C)CC3)c1	-0.2	6.7
COC(=O)C1CCCCN1Cc1ccc2c(c1)CN(C(=O)c1ccc3[nH]ccc3c1)CCO2 (centres undefined)	12.4	3.7
CC1(C(=O)NS(=O)(=O)c2ccc(C#N)cc2)CCN1C(=O)CC1CCCCC1 (centres undefined)	3.2	2.3
CC(Cc1cnccn1)NC(=O)c1cc(-c2ccccc2)nn1C (centres undefined)	1.3	-0.9

Additional results follow.
SMILES	NPYLR7 agonist	NPYLR7 agonist max-min
CCc1nc(NCCN(CC)CC)c(C#N)c2c1COC(C)(C)C2	2.5	0.0
O=C(CCCc1ccc(Br)s1)Nc1ccncc1	8.0&2.8	9.0&13.0
CCCCC(Sc1ccc2nnc(-c3ccc(C)cc3)n2n1)C(=O)O (centres undefined)	17.4	18.9
C=CCc1cccc(/C=N\NC(=O)CSc2nc3ccccc3n2CC)c1O	0.0	2.6
Nc1nc(-c2ccc(Cl)c(Cl)c2)c(-c2ccncc2)s1	-17.8	-24.0
CC(C)N(C)CCN1C(=O)CC(C(=O)O)C1c1ccc2c(c1)CCO2 (centres undefined)	2.6	-2.5
COc1cccc(C2CCCN2C(=O)c2oc3ccc(C)cc3c2C)c1 (centres undefined)	2.1	-4.0
CNC(=O)[C@@H]1C[C@@H](N)CN1C(=O)CSC12CC3CC(CC(C3)C1)C2	-9.5	-18.3
COc1ccc(N=C(C)c2c(C(F)(F)F)[nH]n(-c3nc4ccccc4s3)c2=O)c(OC)c1	-11.4	-20.5
C[N+]1(C)CCC(OC(=O)C(c2ccccc2)c2ccccc2)CC1	-9.4	-2.3
CCOc1cc(C2NC(=O)c3c(n[nH]c3C)N2)ccc1OC(C)C(=O)N(C)C (centres undefined)	0.7	-4.0
O=C(c1cccc(F)c1)N1CCC2(CCCN(CC3CCCCC3)C2=O)C1 (centres undefined)	4.9	4.1
Fc1ccc(C2c3[nH]c4ccccc4c3CCN2Cc2ccoc2)cc1 (centres undefined)	14.2	2.5
O=C(NNC(=O)c1cc(F)ccc1F)c1cccc(S(=O)(=O)N2CCOCC2)c1	6.4	8.8
CN1C(=O)C(=Cc2ccccc2OCCOc2ccccc2)C(=O)N(C)C1=O	1.9	2.2
CC(C)(NC(=O)c1cccs1)C(=O)NCC(c1ccc(F)cc1)N1CCCC1 (centres undefined)	6.4	12.7
N#Cc1cc2c(nc1NC1CCCCC1)CCCC2	-7.0	-7.1
CCOC(=O)C1CCN(C(=O)c2ccc(CSc3nc(COC)cc(N4CCOCC4)n3)o2)CC1	12.3	16.4
CC1(C(=O)NS(=O)(=O)c2cccc(C#N)c2)CCN1C(=O)Cc1ccccc1 (centres undefined)	2.7	1.3
CC(C)CN(Cc1ccc2c(c1)OCCCO2)Cc1ccccn1	-2.2	-6.4
Cc1nc(CC(=O)Nc2cccc(N3CCCCCC3)c2)cs1	0.1	-2.7
Cc1cc(C)c2c(=O)[nH]c(SCC(=O)Nc3ccccc3)nc2n1	-7.8	-12.3
Cc1ccc(NC(=O)C(c2ccccc2)N2CCN(C3CCS(=O)(=O)C3)CC2)cc1Cl (centres undefined)	-1.8	0.4
O=C(/C=C/c1ccc(F)c(Cl)c1)N1CCN(CC(=O)N2CCCC2)CC1	6.3	0.9

Next section, overlapping the part above by 3 compounds.
SMILES	NPYLR7 agonist	NPYLR7 agonist max-min
Cc1cc(C)c2c(=O)[nH]c(SCC(=O)Nc3ccccc3)nc2n1	-7.8	-12.3
Cc1ccc(NC(=O)C(c2ccccc2)N2CCN(C3CCS(=O)(=O)C3)CC2)cc1Cl (centres undefined)	-1.8	0.4
O=C(/C=C/c1ccc(F)c(Cl)c1)N1CCN(CC(=O)N2CCCC2)CC1	6.3	0.9
CC(C)c1nccn1CCCNC(=O)c1ccc(-c2cn[nH]c2)nc1	3.2	-0.5
Fc1ccc(C2CN(Cn3cc(Cl)cn3)CCO2)cc1F (centres undefined)	3.0	0.3
COc1ccc(OC)c(C2CCCN2C(=O)CCl)c1 (centres undefined)	2.5	-1.9
OC(c1ccccn1)C1CCN(Cc2cc3n(n2)CCNC3)CC1 (centres undefined)	9.4	7.3
CC(C)CC(Nc1nc(-c2ccccn2)nc2c1CCNC2)c1cccnc1 (centres undefined)	4.3	-8.2
CC1Cc2cc(-c3cc(COC(=O)Cn4cnc5ccccc54)no3)ccc2O1 (centres undefined)	-1.9	-5.3
COc1ccc(-c2cc3nc(NCCCN(C)C)n(C)c(=O)c3s2)c(C)c1	-2.8	-3.5
COc1cccc2c1OCCCN(Cc1nc(-c3ccc(C(F)(F)F)cc3)oc1C)C2	4.3&6.4	6.0&6.3
O=C(c1ccc([N+](=O)[O-])o1)N(Cc1cccnc1)c1nc2c(F)cccc2s1	-12.4	-12.9
CC(=O)Nc1cc(-c2ccccc2)nn1-c1ccc(C(=O)NCCc2ccccc2F)cc1	-8.8	-9.2
CCc1nc(C)nc(N2CCN(C(=O)C3CCC3)CC2)c1Cc1c(F)cccc1Cl	0.1	12.5
O=C(CCc1c[nH]c2ccccc12)N1CCC(Nc2ncccn2)CC1	13.1	12.1
Clc1ccc(Nc2nc(-c3ccccc3)c3ccccc3n2)c(Cl)c1	-14.2	-21.2
CCc1ccc(S(=O)(=O)NNC(=O)C(C)C)cc1	3.5	-0.7
CCc1ccc(S(=O)(=O)N2CCN(c3ccc4nnc(C)n4n3)CC2)s1	1.4	5.8
COc1ccc(O)c(C2CC(=O)Nc3c2c(-c2ccccc2)nn3C)c1 (centres undefined)	21.3	13.8
CC1=C(C(=O)OCc2ccccc2)C(c2ccc(OCc3ccccc3)cc2)NC(=O)N1C (centres undefined)	-5.4	-10.9
O=C(CCOc1cccc(Cl)c1Cl)Nc1nccs1	2.0	0.4
COc1ccc(OC)c(NC(=O)CSc2nc(=O)n3cccc(C)c3n2)c1	2.5	-1.4
CCCC(C)(CO)NCc1cnc2cc(C)ccn12 (centres undefined)	3.4	1.2
CO[C@H]1CN(C(=O)Nc2ccccc2-c2ccccc2)[C@@H]2CC[C@@H](O)[C@H]1C2	30.9	35.3
c1coc(-c2cc(COc3cccc4ccccc34)no2)c1	-4.9	-4.7
Cc1ncsc1CCN(C)Cc1cccc(-n2cccn2)c1	-0.6	-1.2
Cc1noc(C)c1CC(=O)Nc1ccc(N(C)C)cc1C(F)(F)F	2.6	1.7

Entries of single compounds, quoted from the list. Values in the order: NPYLR7 agonist	NPYLR7 agonist max-min
Profile of c1coc(-c2cc(COc3cccc4ccccc34)no2)c1 → -4.9	-4.7
Profile of Cc1noc(C)c1CC(=O)Nc1ccc(N(C)C)cc1C(F)(F)F → 2.6	1.7
Profile of O=C(CCOc1cccc(Cl)c1Cl)Nc1nccs1 → 2.0	0.4
Profile of COc1ccc(O)c(C2CC(=O)Nc3c2c(-c2ccccc2)nn3C)c1 (centres undefined) → 21.3	13.8

More structures follow.
SMILES	NPYLR7 agonist	NPYLR7 agonist max-min
CCCCCOc1ccc(C(=O)N(C)CCNC(=O)C(F)(F)F)cc1OCCCCC	-18.0	-24.9
COc1cc(NC(=O)c2cn[nH]c2C)ccc1Br	-1.0&-4.8	-2.2&-5.5
O=C(NC1CCN(c2ccccc2C(=O)NC2CC2)CC1)c1ccc(C(F)(F)F)cc1	-5.6	-2.5
CC(C)(C)c1ccc(C(=O)N2CCN(c3ccc(-n4cccn4)nn3)CC2)cc1	10.6	7.6
Cn1c(=O)c2c(nc(-n3ccnc3)n2C)n(C)c1=O	0.8	9.1
CC(=O)c1ccc2c(c1)N(Cc1ccc(F)cc1)C(=O)C(C)S2 (centres undefined)	-1.3	-4.5
CCN(Cc1noc(CC(C)C)n1)C(=O)c1ccc2nc(C)c(C)nc2c1	15.8	6.6
O=C(CCCc1ccccc1)Nc1ccccc1NC(=O)N1CCCC1	-0.3	18.7
CSC1=C(C#N)C2(CCCC2)C(C#N)C(=O)N1 (centres undefined)	-3.3&-3.9	-4.1&-5.6
O=C(c1ccc(Cl)cc1Cl)N1CCSC1c1cccs1 (centres undefined)	11.8	16.9
COc1ccccc1-c1n[nH]c(=S)n1-c1ccc(C)cc1	-7.8	-6.8
COCC(O)CSc1nc(C)[nH]c1[N+](=O)[O-] (centres undefined)	10.6	2.0
Cc1ccsc1/C=C/c1n[nH]c(=O)c(C#N)c1C	-0.9	-1.3
O=C(Nc1ccccc1Br)N1CCc2nc(-c3ccccc3)nc(N3CCOCC3)c2C1	2.3	15.8
CCCCN1C(=O)Nc2c(Br)cc(Br)cc2S1(=O)=O	-1.8	1.4
N=C1/C(=C/c2ccc(C(=O)O)cc2)C(=O)N=C2SC(SCc3ccccc3)=NN12	-0.9	-1.8
O=C(NC12CCC(O)C(SC1)C2=O)c1ccccc1 (centres undefined)	-4.1	-7.8
Cc1ccc(C)c(NC(=O)CSc2ccc(-c3sc(C)nc3C)nn2)c1	5.2	-3.2
CCN(CCO)c1nc(N2CCCCC2)c2cnn(C)c2n1	0.9	-1.6

Sorted by SMILES length (high to low): part of the list above.
SMILES	NPYLR7 agonist	NPYLR7 agonist max-min
N=C1/C(=C/c2ccc(C(=O)O)cc2)C(=O)N=C2SC(SCc3ccccc3)=NN12	-0.9	-1.8
O=C(Nc1ccccc1Br)N1CCc2nc(-c3ccccc3)nc(N3CCOCC3)c2C1	2.3	15.8
CCCCN1C(=O)Nc2c(Br)cc(Br)cc2S1(=O)=O	-1.8	1.4
CCN(CCO)c1nc(N2CCCCC2)c2cnn(C)c2n1	0.9	-1.6
O=C(NC12CCC(O)C(SC1)C2=O)c1ccccc1 (centres undefined)	-4.1	-7.8
